Biofilm kill mix: clotrimazole potentiators killing C. albicans biofilm, primary screen, 4-compound mixtures. inhibition, % at 7.6 µM. 120,000 tested, 0.02% active. C. albicans biofilm persisters + clotrimazole, fluorescence viability; primary screen in compound mixtures of four per well. AID 1242, 2008;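 active = inhibition above 30.3% in the primary screen of four-compound pools, then above 30% when the compound was retested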;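 note: compounds exposed to preformed 24 h biofilms for 48 h; the number belongs to the whole pool; some results filed as inactive read as strong as hits; inactives centre near 12; 0% = biofilm with clotrimazole alone and 100% = kill control; retested singly at about 60 µM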
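Test system: C. albicans biofilms. Buffer or medium: RPMI/MOPS medium, pH 7.0. Timing: 48 h compound exposure at 37 °C. Technique: Alamar Blue fluorescence. Evaluation: percent inhibition of biofilm viability.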
Active calls of the source: *. An excerpt; rates above refer to the full screens.

SMILES	Biofilm kill mix
CCOc1ncccc1C(=O)OCC(=O)c1cc(OC)ccc1OC	-9.3
Cc1cc(=S)nc(-c2ccccn2)[nH]1	-2.6
O=C(NCc1ccccc1)OCCN1CCN(Cc2ccccc2)CCC1=O	15.5
CC(C)(C)C(=O)Nc1ccc(-c2cnco2)cc1	17.2
Cc1ccc(C(=O)NCCNS(C)(=O)=O)cc1	0.3
COCCSc1ccccc1C(=O)N1CCN(c2ccccc2OC)CC1	5.4
Cc1nnsc1C(=O)NNc1ccc(C(C)(C)C)cc1	23.0
Cc1ccc(C(=O)NN2C(=O)c3ccc(S(=O)(=O)c4ccc(C(=O)O)cc4)cc3C2=O)cc1	9.5
Cc1ccc(OCC(=O)NC(=S)Nc2ccc3c4c(cccc24)CC3)cc1	-0.5
O=C(OC1CCOC1=O)c1ccc(NS(=O)(=O)c2cccs2)cc1 (stereo unspecified)	9.6
O=C(CSc1nc2c(c(=O)n1-c1ccccc1)SCC2)NCC1CCCO1 (stereo unspecified)	20.0
Cc1onc(-c2c(Cl)cccc2Cl)c1-c1nc2cc(Cl)ccc2c(=O)o1	11.8
Nc1ccc2oc(-c3ccccc3Cl)cc(=O)c2c1O	9.1
O=C(Cn1cc([N+](=O)[O-])nc1[N+](=O)[O-])N1CCN(c2ccccc2)CC1	20.2
N#Cc1ccc(/C=N/NC(=O)c2cc(-c3cccs3)nc3ccccc23)cc1	14.4
CCOc1ccc(CNC(=O)CCSCc2ccccc2F)cc1OC	15.1
COc1cc(/C=N/Nc2nc3ccccc3[nH]2)cc(Br)c1OCC(=O)N(C)C	2.1
CC1CCC(NC(=O)C(Cc2ccccc2)n2cccc2)CC1 (stereo unspecified)	10.9
O=C(CCc1ccc(S(=O)(=O)NC2CCCCC2)cc1)NCc1ccccn1	2.4
CCC(=O)N1N=C(c2c(O)n(C)c(=O)n(C)c2=O)CC1c1ccccc1 (stereo unspecified)	12.9
O=C(NC(NC(=S)Nc1c(Cl)cccc1Cl)C(Cl)(Cl)Cl)OCc1ccccc1 (stereo unspecified)	9.0
O=C1NC[C@H](c2ccccc2)N(CCc2cc(C(F)(F)F)cc(C(F)(F)F)c2)C1=O	6.7
Fc1ccc(CNC(=S)Nc2ccccc2Cl)cc1	11.1
COCCNC(=O)Cn1cc(S(=O)(=O)N2CCN(c3ccccc3F)CC2)c2ccccc2c1=O	14.4
NS(=O)(=O)c1ccc(NC(=S)NNC(=O)c2cccs2)cc1	2.2

Among those listed so far, four contain a Cl atom:
SMILES	Biofilm kill mix
Cc1onc(-c2c(Cl)cccc2Cl)c1-c1nc2cc(Cl)ccc2c(=O)o1	11.8
Nc1ccc2oc(-c3ccccc3Cl)cc(=O)c2c1O	9.1
O=C(NC(NC(=S)Nc1c(Cl)cccc1Cl)C(Cl)(Cl)Cl)OCc1ccccc1 (stereo unspecified)	9.0
Fc1ccc(CNC(=S)Nc2ccccc2Cl)cc1	11.1

Next part
SMILES	Biofilm kill mix
Cc1nc2ccccc2c(=O)n1/N=C1\C(=O)N(C)c2ccccc21	8.3
Cc1ccc(NC(=O)COC(=O)CNC(=O)c2cccc([N+](=O)[O-])c2)cc1S(=O)(=O)N1CCCCCC1	8.7
COc1cccc(CNC(=O)CCC2CCCN(c3cc(C)nc(N)n3)C2)c1 (stereo unspecified)	31.3
CC(C)[C@H](NS(=O)(=O)c1cccc(Cl)c1)C(=O)OCC(=O)N1CCN(c2ccccc2)CC1	19.3
CCOC(=O)C1(CCOc2ccccc2)CCN(Cc2cnc(C)s2)CC1	5.9
C[C@]12CC[C@@H]3c4ccc(O)cc4CC[C@H]3[C@@H]1CCC2=O	14.8
O=C(CCn1cnc(-c2ccccc2)c1-c1ccccc1)N/N=C/c1ccc(O)cc1	15.1
Cc1nnn(-c2nonc2N)c1C(=O)N/N=C/c1ccccc1O	7.7
COc1ccc(-c2ccc3ccccc3n2)cc1OC	13.9
COc1ccc(Cl)cc1NC(=S)NCc1ccccn1	20.6
CCCCN(C(=O)CNC(=O)c1cccs1)C(C(=O)NC1CCCC1)c1ccncc1 (stereo unspecified)	5.2
Cc1ccc2c(c1)N(CCCC(=O)NCc1ccc3c(c1)OCO3)C(=O)CO2	-3.4
O=C(c1ccccc1)C(C(=O)N1CCc2ccccc2C1)n1ccccc1=O (stereo unspecified)	18.7
O=C(NCCCCc1ccccc1)c1cccc([N+](=O)[O-])c1	3.8
O=C(N/N=C/C=C\c1ccccc1[N+](=O)[O-])c1cc(-c2ccccc2)nc2ccccc12	16.7
O=C(Cn1cnc2c(nnn2Cc2ccc(F)cc2)c1=O)NCC1CCCO1 (stereo unspecified)	-5.4
COc1cc(SC)ccc1C(=O)Nc1ccc(Br)cn1	13.0
COC(=O)/C=C1\SC(=Nc2ccc(Cl)c(Cl)c2)NC1=O	19.2
CCCCNC(=O)Nc1nnc(SCC(=O)OCC)s1	13.6
COc1ccc(C(C)=O)cc1CSc1nnc(C)n1-c1ccccc1	3.8
COc1ccc(CCCC(=O)NC(C)c2ccccc2)cc1 (stereo unspecified)	11.2
S=C(NCC1CCCO1)NC1CCCC1 (stereo unspecified)	15.5
[O-][n+]1cccc2ncc3cscc3c21	11.9
Cn1c(=O)c([N+](=O)[O-])c(NCC2CCCO2)c2ccccc21 (stereo unspecified)	14.8
NNC(=O)c1csc(-c2ccccc2)n1	20.0

Copied from the list.
Biofilm kill mix, O=C(CCn1cnc(-c2ccccc2)c1-c1ccccc1)N/N=C/c1ccc(O)cc1 → 15.1
Biofilm kill mix, Cc1nnn(-c2nonc2N)c1C(=O)N/N=C/c1ccccc1O → 7.7

Next structures follow:
SMILES	Biofilm kill mix
Cc1ccc(/C([O-])=C(/C(=S)NCc2ccc3c(c2)OCO3)[n+]2ccc(N(C)C)cc2)c(C)c1	18.2
COc1ccc2c(c1)C(c1ccc(N3CCOCC3)cc1)=NNC(c1cccnc1)=N2	11.2
CNC(CC(=O)c1ccc([N+](=O)[O-])cc1)C(Cl)(Cl)Cl (stereo unspecified)	12.7
C[n+]1ccc(C(=O)NCCC[N+](C)(C)C)cc1/C=N/O	12.1
CCN(CC)CCCNC(=O)C1c2ccccc2C(=O)N(CCOC)C1c1ccc(F)cc1 (stereo unspecified)	5.4
CCCCNC(=O)COC(=O)CCC(=O)c1ccc(Cl)cc1	13.7
CC(Oc1ccc(Cl)cc1Cl)c1ccn[nH]1 (stereo unspecified)	5.0
C=C(C)c1cccc(C(C)(C)NC(=O)NC2CCCC2)c1	3.7
O=C(Nc1cn(-c2ccccc2)nc1-c1ccc(Cl)cc1)c1ccccc1	23.3
CCC1=C(OC(=O)N(CC)CC)N2C(=O)OC(=NCCc3c[nH]c4ccccc34)[C@]2(C)[C@H]2C1=CC[C@H]1C(=O)N(CC)C(=O)[C@H]12	13.3
CCOC(=O)C1=C(C(F)(F)F)Nc2ncnn2C1c1cccc(OC)c1OC (stereo unspecified)	18.9
Cc1ccc(C(=O)NCCN2C3=NC[C@H](Cc4ccc(O)cc4)N3C[C@H]2Cc2ccc(O)cc2)cc1Br	2.5
COc1ccccc1NC(=O)Nc1nnc(CC(=O)Nc2ccccc2)s1	8.7
Cc1cccn2c(=O)c(C=O)c(N3CCN(c4ccc(F)cc4)CC3)nc12	14.6
CCOC(=O)c1ccc(NC(=O)N2CCN(C(=O)C3CCCO3)CC2)cc1 (stereo unspecified)	32.2
Cc1nn(C)c(C(=O)Nc2ccn(C34CC5CC(CC(C5)C3)C4)n2)c1[N+](=O)[O-]	1.5
COc1cccc(/C=C/C(=O)NCc2ccc(S(N)(=O)=O)cc2)c1	24.0
COc1ccc(/C=N\NC(=S)SCN2C(=O)C3CCC(C)(C2=O)C3(C)C)cc1 (stereo unspecified)	7.4
CC(CC(=O)Nc1cccnc1)c1ccccc1 (stereo unspecified)	13.7
O=C(CCn1c(=O)sc2ccccc21)NCCC1=CCCCC1	4.4
CCc1ccc(C2=CC(c3cc(Br)ccc3F)n3ncnc3N2)cc1 (stereo unspecified)	13.4
COc1ccccc1NC(=S)N1CCN(C(c2ccccc2)c2ccccc2)CC1	19.5
Cc1cccc(NC(=O)NNC(=O)c2cc3ccccc3cc2O)c1C	17.3
Nc1nc2ccc([N+](=O)[O-])cc2[nH]1	16.5
COc1c(Cl)cc(Cl)cc1C(=O)Nc1ccc(C(=O)O)cc1	16.5
More structures:
SMILES	Biofilm kill mix
Cc1nc(-c2nnc(SCC(=O)Nc3ccc(C(F)(F)F)cc3)n2C)cs1	-8.4
COc1ccc(-n2cnnc2SCC(=O)Nc2cccc([N+](=O)[O-])c2)cc1	13.2
CCCC(O)(CCC)C(=O)NN(C(=O)CCl)c1cccc(C)c1	19.0
C=CCc1ccccc1OCC(=O)N/N=C/c1ccccc1OCC	7.3
CC(C)c1ccc(/C=N/NC(=O)c2cccc(Cl)c2)cc1	11.5
Nn1cc(-c2ccccc2)nc1SCC(=O)Nc1ccc(S(N)(=O)=O)cc1	22.3
CCOC(=O)C(Cc1ccc(OC)c([N+](=O)[O-])c1)NC(=O)CCC(=O)Nc1ccc(C)cc1 (stereo unspecified)	17.9
Cn1cc(CNCCCn2ncc3ccccc32)c(-c2ccccc2F)n1	12.7
CC(C)(C)NC(=O)CC1C(=O)NCCN1Cc1c(F)cccc1Cl (stereo unspecified)	8.5
COc1ccc(C(=O)C23CC4CC(C2)CC(C(=O)c2ccc(OC)cc2)(C4)C3)cc1	11.6
CC(NC(=O)C12CC3CC(CC(C3)C1)C2)C(=O)N/N=C/C1=C(N2CCOCC2)C(=C\c2ccccc2)/CC1 (stereo unspecified)	13.8
CCN(CC)C(=O)C12C(=O)Oc3ccccc3C1C2(C)C(=O)c1ccc(F)cc1 (stereo unspecified)	16.8
Cc1cc(-c2n[nH]c(=S)n2/N=C/c2sccc2C)n[nH]1	1.4
COc1ccc(C)cc1NC(=O)c1cnc2n(c1=O)CCS2	-5.0
CC(=O)Oc1cc(C(C)C)c(OCCN(C)C)cc1C	16.7
Nc1cc(=O)[nH]c(SCC(=O)N2CCN(S(=O)(=O)c3ccc4ccccc4c3)CC2)n1	13.9
O=C(NCc1ccc(OC(F)(F)F)cc1)C1CC(c2cccc(F)c2)=NO1 (stereo unspecified)	12.1
Cc1ccc(C)c(NC(=O)C(Sc2ncnc3ccccc23)c2ccccc2)c1 (stereo unspecified)	10.0
CN(C)CCCN(Cc1cc2cc3c(cc2[nH]c1=O)OCO3)C(=S)NCc1ccco1	20.2
O=[N+]([O-])c1ccc(Oc2ccc(S(=O)(=O)Nc3ccccc3)cc2)cc1	8.1
COc1ccc(-c2nn(-c3ccccc3)cc2C(=O)NC(=S)NNC(=O)c2ccncc2)cc1	10.4
COC(=O)CCCCCN1C(=O)NC(c2ccccc2)C(C(=O)OCc2ccccc2)=C1C (stereo unspecified)	7.9
O=C(O)c1ccnc(Cl)c1	6.2
Fc1ccccc1CSc1ncn[nH]1	14.6
O=[N+]([O-])c1ccccc1NCc1c(O)ccc2ccccc12	19.8

4 compounds out of the list, ordered by heavy-atom count, lowest first:
SMILES	Biofilm kill mix
O=[N+]([O-])c1ccccc1NCc1c(O)ccc2ccccc12	19.8
COc1ccc(-n2cnnc2SCC(=O)Nc2cccc([N+](=O)[O-])c2)cc1	13.2
Cc1ccc(C)c(NC(=O)C(Sc2ncnc3ccccc23)c2ccccc2)c1 (stereo unspecified)	10.0
COc1ccc(C(=O)C23CC4CC(C2)CC(C(=O)c2ccc(OC)cc2)(C4)C3)cc1	11.6

(more compounds)
SMILES	Biofilm kill mix
COC(=O)c1cc(CNC(=O)c2ccc(O)c(Cl)c2)ccc1OC	13.7
O=C(C[n+]1ccccc1)Nc1cc(C(F)(F)F)ccc1Cl	9.1
CC1(C)CC2(CCO1)C(Nc1ccccc1)=NC(=S)N2CC(N)=O (stereo unspecified)	17.0
CC(C)(C)C(=O)Nc1sc2c(c1C(=O)Nc1ccccn1)CCCC2	16.2
CCO[C@H]1OC(C(=O)N2CCN(Cc3ccc4c(c3)OCO4)CC2)=C[C@@H](c2csc3ccccc23)[C@@H]1CCCO	18.5
O=C(OCc1cncs1)c1cccs1	8.9
CC(C)N1C(=S)N(Cc2ccco2)C(=O)C1CC(=O)Nc1ccccc1 (stereo unspecified)	8.0
CN(C(=O)CSc1nnc(-c2ccccc2)o1)c1c(N)n(Cc2ccccc2)c(=O)[nH]c1=O	13.7
CCOc1ccc(/C=C/C(O)=C2/C(=O)NC3(C)CC2c2ccccc2O3)cc1OC (stereo unspecified)	3.5
O=C(CC12CC3CC(CC(C3)C1)C2)NC(=S)NCc1ccco1	6.4
Cc1cc(NC(=O)c2c(F)cccc2Cl)no1	-2.1
Cn1ncc2c(NNC(=O)Cc3cccc4ccccc34)ncnc21	15.4
CCCCCCc1cc2cc(S(=O)(=O)c3ccc(Cl)cc3)c(=O)oc2cc1O	16.4
CCN1CCc2c(OCC(=O)N3N=C(c4cccs4)CC3c3ccc(F)cc3)cccc2C1=O (stereo unspecified)	18.0
Cc1ccc(C(=O)NCCc2cccs2)cc1	-2.5
Cn1c(N)c(N=Nc2ccc(S(N)(=O)=O)cc2)c(=O)n(C)c1=O	10.6
O=C(O)c1ccc(N/N=C/c2cc3cc4c(cc3nc2Cl)OCCO4)cc1	27.6
N#Cc1ccc(NC(=O)CCc2nc3ccccc3s2)cc1	9.7
COc1cccc(C2C(C#N)=C(N)SC(c3ccccc3)C2[N+](=O)[O-])c1 (stereo unspecified)	11.1
CC(=O)Nc1ccc(Sc2ncnc3scc(-c4ccccc4)c23)cc1	10.2
Cc1ccc(S(=O)(=O)N2CCN(C(=O)c3ccc(Cl)nc3)CC2)cc1	9.2
Cc1cc(C)cc(OCC(=O)NNC(=O)CCC(=O)NCc2ccccc2)c1	-8.8
Cc1ccc(NS(=O)(=O)c2ccc3[nH]c(=O)[nH]c3c2)c(C)c1	17.4
O=C(OCc1nc2ccccc2s1)c1cccc(N2C(=O)CCC2=O)c1	1.2
CCN1CCN(C(=O)CCc2nnc(CCCCc3ccccc3)o2)[C@@H](C)C1=O	19.0
COC(=O)CSc1nc(-c2ccc(F)cc2)cc(C(F)(F)F)n1	15.4
